RE007 growth inh: less growth of the S. pombe RE007 Vpr strain. Potency, µM (top dose mostly 92.2 µM), inactives show at the highest dose activity change, negative = less growth. 360,000 compounds, 0.21% hits. S. pombe RE007 Vpr strain, BacTiter-Glo ATP luminescence, 24 h; control for the full effect not named in the record; active = well fitted falling curve with a large enough effect; inconclusive = small, poorly fitted or top-dose-only effect; inactive = no such curve, though single readings can be large or run the other way;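 further: on the % scale 0 is the no-effect control and ±100 the full control effect; nearly all actives have a fitted effect of over 50% in size; the assay follows cell death caused by Vpr and the record does not say whether a fall means rescue or toxicity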
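Fission yeast strain RE007, carrying one chromosomally integrated HIV-1 vpr copy, was seeded at OD 0.01 in PMG+AL medium with 23 nL pinned compound. After 24 h at 30 °C and 99% humidity, viability was read by BacTiter-Glo luminescence.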
MARV entry inh: inhibitors of Marburg virus binding or cell entry; Marburg virus pseudotyped entry inhibition, cell reporter; control for the full effect not named in the record; about a third of the inactives were read at about 46 µM; Potency, µM (doses to about 37.8 µM), for inactives: at the top dose activity change, negative = inhibition, actives largely listed as inhibitors; 300,000 compounds, 1.8% hits; AID 540276; active = well fitted inhibition curve with a large enough effect; inconclusive = small, poorly fitted or top-dose-only effect, or effect the other way; inactive = flat fitted curve, though single readings scatter; tested in HEK293 cells; about a fifth of its hits are not listed in these tables; further: on the % scale 0 is the no-effect control and ±100 the full control effect; luciferase read-out
NS1 inh: influenza NS1 inhibition | S. cerevisiae slowed by influenza A NS1, growth recovery by OD600 | Potency, µM (doses to about 46.1 µM), without a hit: top-dose activity, positive = more growth | 270,000 compounds, 0.4% hits; active means well fitted rising curve with a large enough effect; inconclusive means small, poorly fitted or top-dose-only effect; inactive means no such curve, though single readings can be large or run the other way; further: nearly all actives have a fitted effect of over 50% in size
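A cell-based growth assay was used: compounds that relieve NS1-induced slow growth of budding yeast raise OD600. Assay medium was yeast nitrogen base with ammonium sulphate and -URA supplement, pH 6.0, with 2% galactose.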
Cruzain inh Det: inhibitors of Trypanosoma cruzi cruzain with detergent | Potency, µM, for the others: max response, negative = inhibition, hits mostly inhibitors | 200,000 compounds, 0.43% hits | purified cruzain, Z-FR-AMC fluorescence, 0.01% Triton | AID 1478 | P25779;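 further: plate controls were neutral wells for no effect and buffer without enzyme for full effect; nearly all actives have a fitted effect of over 40% in size; top concentration of the series not given in the record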
Target sequence (P25779 123-467 limits assumed): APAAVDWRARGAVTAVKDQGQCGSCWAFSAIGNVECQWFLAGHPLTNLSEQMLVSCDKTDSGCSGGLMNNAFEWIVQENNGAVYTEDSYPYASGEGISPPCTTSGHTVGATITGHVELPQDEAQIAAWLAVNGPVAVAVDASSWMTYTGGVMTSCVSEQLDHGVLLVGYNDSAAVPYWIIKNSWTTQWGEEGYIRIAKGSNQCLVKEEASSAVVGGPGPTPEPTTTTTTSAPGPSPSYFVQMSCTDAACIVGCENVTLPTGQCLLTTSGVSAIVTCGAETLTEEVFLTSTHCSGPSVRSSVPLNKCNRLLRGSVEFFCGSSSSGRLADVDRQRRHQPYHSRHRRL
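Steps: dispense cruzain (1.5 nM final) in acetate buffer pH 5.5 with DTT and 0.01% Triton X-100; pin-transfer compounds; incubate 15 min RT; add Z-FR-AMC (2 uM final); read fluorescence every 30 s, using the 60 s intensity change.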
Cruzain noTriton: inhibitors of Trypanosoma cruzi cruzain without detergent. Potency, µM, for the others: max response, negative = inhibition, hits mostly inhibitors. purified cruzain, Z-FR-AMC fluorescence, no detergent. AID 1476. 200,000 compounds, 2.3% hits. P25779;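 further: plate controls were enzyme without inhibitor for no effect and buffer without enzyme for full effect; nearly all actives have a fitted effect of over 40% in size; top concentration of the series not given in the record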
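Detergent-free condition (0.00005% Triton X-100) in acetate buffer pH 5.5 with DTT. 1.5 nM enzyme and compound were pre-mixed 15 min, then 2 uM Z-FR-AMC substrate added; reaction progress from fluorescence change between first and third reads (60 s).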
LASV entry inh: blocks Lassa virus binding to or entry into cells; 300,000 compounds, 1.2% hits; Potency, µM (doses to about 37.9 µM), inactives show at the top dose activity change, negative = inhibition, actives largely listed as inhibitors; Lassa virus pseudotype entry inhibition, cell reporter; control for the full effect not named in the record; active means well fitted inhibition curve with a large enough effect; inconclusive means small, poorly fitted or top-dose-only effect, or effect the other way; inactive means flat fitted curve, though single readings scatter; tested in HEK293 cells; further: on the % scale 0 is the no-effect control and ±100 the full control effect; nearly all actives have a fitted effect of over 50% in size; luciferase read-out
SARS PLpro yeast: SARS-CoV PLP inhibition in yeast; S. cerevisiae expressing SARS-CoV PLpro, growth rescue; control for the full effect not named in the record; Potency, µM (highest dose often 32.9 µM), without a hit: at the highest dose activity, positive = growth rescue; AID 485353; 330,000 compounds, 0.19% hits; active means well fitted rising curve with a large enough effect; inconclusive means small, poorly fitted or top-dose-only effect; inactive means no such curve, though single readings can be large or run the other way; further: 0% is about no effect; nearly all actives have a fitted effect of over 55% in size; growth read by luminescence after 48 h
2A StopGo: lowers the luciferase signal of an FMDV 2A StopGo reporter. human cells with a luciferase reporter of 2A StopGo recoding; control for the full effect not named in the record. Potency, µM (doses to about 57.9 µM), for the others: top-dose signal change, negative = less light. 410,000 compounds, 1.2% hits; active = well fitted falling curve with a large enough effect; inconclusive = small, poorly fitted or top-dose-only effect; inactive = no such curve, though single readings can be large or run the other way; tested in HEK293T cells; further: on the % scale 0 is the no-effect control and ±100 the full control effect; nearly all actives have a fitted effect of over 45% in size; luciferase light after 4 h
Numbers without * were called inactive; ? = inconclusive; nt = no result given; & = joins results of further samples; [ ] = dose if it differs, or a comment. Unless noted, the call rests on the fitted dose curve; in most records, active means well fitted curve in the direction sought with a large enough effect; inconclusive means small, poorly fitted or top-dose-only effect, or another doubt; inactive means no such curve, though single readings can be large; an effect the other way counts as inactive or inconclusive. Potency means the concentration at half of the fitted maximal effect.

compound | RE007 growth inh | MARV entry inh | NS1 inh | Cruzain inh Det | Cruzain noTriton | LASV entry inh | SARS PLpro yeast | 2A StopGo
O=C1CC(N2CCCCC2)C(=O)N1c1ccccc1 (configuration not stated) | 40µM* | -4% | -40% | 5.1% | -2% | 7% | -90% | -11%
Cc1cc(Cl)ccc1NS(=O)(=O)c1ccc2c(c1)CCN2S(C)(=O)=O | nt | nt | nt | -2.7% | -9% | -8%[46.1 µM] | nt | ?
CSc1ccccc1NC(=O)Nc1cccc(Cl)c1Cl | -7% | ? | -4% | -1.1% | ? | 8% | 0% | 18%
Cc1cc(=O)oc2cc(OCC(=O)N3CCOCC3)ccc12 | 1% | 0% | 13% | 8.9µM* | -1% | 2% | 0% | 12%
CCOCC(=O)Nc1nc2ccc(OCC)cc2s1 | -1% | ? | -28% | 0.0% | 8% | ? | 0% | 29%
Cc1cccc(C)c1NC(=O)C(NC=O)c1ccccc1 (configuration not stated) | 43% | 6%[46.1 µM] | 8% | 4.5% | 12% | 9% | -9% | -19%
CC(C)(ONC(=O)Nc1ccccc1Cl)C(=O)O | 17% | 0%[14.2 µM] | 5% | nt | nt | 22% | 0% | 37%[activator]
CCCNC(=O)C1CN(C(=O)c2nn(Cc3ccccc3)c(=O)c3ccccc23)c2ccccc2O1 (configuration not stated) | 10% | ? | nt | nt | nt | -3% | 1% | -12%
COc1ccc([N+](=O)[O-])cc1NC(=S)NC(NC(C)=O)C(Cl)(Cl)Cl (configuration not stated) | 2% | nt | 8% | nt | nt | nt | 0% | -5%
O=S(=O)(CCN1CCSCC1)c1ccc(Cl)cc1 | 16% | 16%[46.1 µM] | 12% | nt | nt | 3% | 0% | -6%
O=C(NC1CCCC1)c1n[nH]c2ccccc12 | -4% | nt | -1% | nt | nt | nt | -2% | 77%[activator]
COc1ccc2[nH]c(=O)c(CN(C(=O)NC3CCCCC3)C3CCCC3)cc2c1 | 6% | 20% | -3% | 4.1% | 2% | -1% | 6% | -19%
COCCCn1c(=N)c(C(=O)NCC2CCCO2)cc2c(=O)n3cc(C)ccc3nc21 (configuration not stated) | nt | -7%[46.1 µM] | nt | -26% | ? | 5%[46.1 µM] | nt | -13%
COc1ccc(NC(=O)c2ccc3ccccc3n2)cc1S(=O)(=O)N1CCCCC1 | -3% | ? | -15% | -5.2% | -5% | ? | 3% | 12%
CSC(=Nc1ccccc1)C1=C(O)COC1=O | -4% | 0%&0% | -6% | 0.2% | -13% | -7% | 2% | -17%
COC(=O)c1ccccc1NC(=O)C1CCN(c2ncnc3c2nc2n3CCCCC2)CC1 | -18% | -19%[46.1 µM] | ? | nt | nt | ? | -12% | -3%
O=C1CCCc2c1nc(-c1ccc([N+](=O)[O-])cc1)n2O | -14% | 6%[14.2 µM] | -1% | nt | nt | -1% | 1% | 3%
C=CCn1c(COc2ccccc2)nc2ccccc21 | -9% | ? | -49% | nt | nt | 0%[46.1 µM] | 7% | 1%
N=c1c2cn[nH]c2nc(SCC(=O)c2ccc(Br)cc2)n1-c1ccc(Br)cc1 | 15% | ? | 9% | nt | nt | 1% | 1% | -3%
COc1ccc(C(=O)N2c3ccc(C)cc3C(C)(c3ccccc3)CC2(C)C)cc1 (configuration not stated) | nt | nt | nt | -4.6% | ? | -9%[46.1 µM] | nt | ?

Already shown: entries from further up.
compound | RE007 growth inh | MARV entry inh | NS1 inh | Cruzain inh Det | Cruzain noTriton | LASV entry inh | SARS PLpro yeast | 2A StopGo
CSc1ccccc1NC(=O)Nc1cccc(Cl)c1Cl | -7% | ? | -4% | -1.1% | ? | 8% | 0% | 18%
Cc1cc(=O)oc2cc(OCC(=O)N3CCOCC3)ccc12 | 1% | 0% | 13% | 8.9µM* | -1% | 2% | 0% | 12%
CCOCC(=O)Nc1nc2ccc(OCC)cc2s1 | -1% | ? | -28% | 0.0% | 8% | ? | 0% | 29%

Next structures.
compound | RE007 growth inh | MARV entry inh | NS1 inh | Cruzain inh Det | Cruzain noTriton | LASV entry inh | SARS PLpro yeast | 2A StopGo
Cc1nn(C)c(C)c1/C=C(\C#N)C(N)=O | 0% | -15% | 4% | -0.6% | 1% | ? | 4% | 0%
COC(=O)c1ccc(C(=O)OC)c(NC(=O)N2CC3CCCN3c3ccccc32)c1 (configuration not stated) | nt | nt | nt | -4.2% | 10% | -3%[46.1 µM] | nt | -18%
COc1ccc(OCc2nnc(SCC(=O)c3ccccc3)o2)cc1 | -20% | 5% | -8% | nt | nt | ? | -1% | -4%
CC(C)(C)NC(=O)c1cccc(NC(=O)Cc2ccc(Br)cc2)c1 | -13% | ? | -5% | -6.1% | -9% | -18% | 12% | ?
COc1cc2c(cc1OC)-c1cc(OCc3ccccc3Cl)nc(=O)n1CC2 | 8% | ? | 10% | -20% | ? | ? | -4% | 0%
Clc1ccccc1-c1nnc2sc(-c3ccccn3)nn12 | 4% | 9% | 8% | -0.9% | -6% | -5% | ? | 53%[activator]
O=C(COC(=O)c1ccc(O)cc1)NCCc1c[nH]c2ccccc12 | -19% | 4% | nt | nt | nt | ? | 2% | ?
COCCN1C(=O)N(c2cccc(OC)c2)C(=O)C1CC(=O)Nc1cccc(F)c1 (configuration not stated) | 7% | nt | 5% | nt | nt | nt | -10% | 18%
CCc1nn(CC(=O)NCCN(CC(C)C)CC(C)C)c(=O)c2cc3sc(C)cc3n12 | nt | 2%[46.1 µM] | nt | 0.2% | -2% | nt | nt | -11%
O=C(CSc1nc2ccccc2c(=O)n1-c1ccc(F)cc1)Nc1ccc2c(c1)CCC2 | 9% | ? | ? | -0.2% | ? | ? | 5% | 0%
O=C(Nc1cccc(Cl)c1)C1C2C=CC3(O2)C1C(=O)N(CCN1CCCCC1)C3C(=O)NC1CCCCC1 (configuration not stated) | -20% | ? | -20% | nt | nt | -12%[46.1 µM] | 13% | 7%
Cc1cc(N)c2ccccc2n1 | 14% | nt | -2% | nt | nt | nt | 2% | 3%
CC1Sc2ccc(C(=O)O)cc2NC1=O (configuration not stated) | 9% | 6% | 8% | 3.8% | 4% | 9% | 8% | 29%
Cc1ccc(NC(=O)CC2Oc3ccc(C)cc3NC2=O)c(C)c1 (configuration not stated) | 5% | ? | 7% | -0.1% | 13% | nt | -1% | -4%&-8%
CCCn1c(=S)[nH]c2sc3c(c2c1=O)CCCC3 | 9% | -1%[46.1 µM] | 3% | nt | nt | ? | 0% | 0%
CCN(CC)C(=O)c1sc2c(c1C)c(=O)n(-c1ccc(OC)cc1OC)c(=O)n2CC(=O)c1ccc(Cl)cc1 | nt | nt | nt | 0.8% | ? | 0%[46.1 µM] | nt | -6%
CCCOC(=O)c1cccc(NC(=O)COc2ccc([N+](=O)[O-])cc2)c1 | 6% | -34% | -5% | -8.0% | -16% | -10% | 7% | 25µM*
Cc1ccc2nc(C3CCN(C(=O)c4ccco4)CC3)[nH]c2c1 | -2% | -11% | 5% | 1.8% | 2% | 36%[14.3 µM] | 4% | -16%
CCS(=O)(=O)N1CCN=C1SC(C)c1ccccc1 (configuration not stated) | 49% | nt | -10% | nt | nt | nt | 2% | -8%
Cc1ccc(C(=O)N/N=C2\CC3CC=CC23)c(C)c1 (configuration not stated) | -2% | 19% | nt | nt | nt | 17% | 2% | 29%
Cc1nn(Cc2ccc(Cl)c(Cl)c2)c(C)c1NC(=O)c1cc(-c2ccc3c(c2)OCO3)on1 | 1% | 6.5µM* | -43% | 0.9% | ? | ? | 12% | ?
O=C(O)CC(NC(=O)c1cccc(F)c1)c1ccc(OC2CCCC2)cc1 (configuration not stated) | -4% | nt | 2% | nt | nt | nt | 0% | -2%
Cc1ccc(S(=O)(=O)CNC(=S)c2cccc(Cl)c2)cc1 | -11% | 15% | -35% | -9.0% | -10% | -4% | -10% | -9%
O=C(CSCc1ccc(F)cc1)N1CCN(c2ccccc2F)CC1 | nt | nt | nt | 0.3% | -17% | 22%[46.1 µM] | nt | 21%
Cc1cccc(N2CCN(Cc3c(C)n(C)n(-c4ccccc4)c3=O)CC2)c1C | -9% | -27% | -13% | 2.7% | -5% | -2% | -2% | -7%
O=C(Oc1ccc(/C=N/Nc2ccccc2)cc1)c1ccccc1 | 33% | 34% | -64% | 0.6% | -27% | -9% | -1% | 15%
Cc1ccc(/C=C/C(=O)OCC(=O)NC(C)C)o1 | 0% | 3%[46.1 µM] | nt | nt | nt | -14%[46.1 µM] | -2% | -7%
CC(=O)c1ccc(N2CCN(C(=O)/C=C/c3ccc(S(=O)(=O)NCc4ccco4)cc3)CC2)cc1 | -9% | ? | -4% | nt | nt | ? | 1% | ?
CC(=O)Nn1cc2c(c1-c1ccccc1)c(=O)n(C)c(=O)n2C | 2% | 3% | -4% | 1.6% | -2% | -23% | 1% | 11%
CCCOc1ccc(NC(=O)CC2C(=O)N(c3cccc(OC)c3)C(=O)N2CCc2ccncc2)cc1 (configuration not stated) | nt | nt | nt | -4.4% | ? | -13%[46.1 µM] | nt | -16%
C=C(C)c1cccc(C(C)(C)NC(=O)N2CCCCC2CC)c1 (configuration not stated) | 5% | ? | 13% | 4.4% | -9% | -22% | 10% | -11%
O=C(NC(=S)N1CCN(c2ccccc2)CC1)c1ccc(S(=O)(=O)N2CCOCC2)cc1 | 3% | nt | -14% | nt | nt | nt | -1% | 0%
O=C(CCSc1ccccc1)N1CCN(c2ccccc2)CC1 | -16% | 7%[46.1 µM] | -30% | nt | nt | -19%[46.1 µM] | 0% | 26%
CCCn1cnc2scc(-c3ccc(C)cc3)c2c1=O | 14% | 2%[46.1 µM] | -1% | nt | nt | 18% | 1% | -4%
O=C(NC(C(=O)N/N=C/c1ccccc1)c1n[nH]c(=O)c2ccccc12)c1ccccc1 (configuration not stated) | 13% | ? | 25% | -8.9% | -13% | 2% | 3% | -3%
CSc1nc(N)c2ncn([C@@H]3O[C@H](COP(=O)(O)OP(=O)(O)OP(=O)(O)O)[C@H](O)[C@H]3O)c2n1 | nt | ? | -1% | -4.3% | 9% | nt | nt | nt

Bioassay records as filed in PubChem BioAssay.
